# Assay outcomes deposited in PubChem BioAssay by National Center for Advancing Translational Sciences (NCATS).
# 2A Renilla: Primary qHTS Assay for Foot and Mouth Disease Virus Antivirals against NCGC Sytravon and CBC Compound Libraries: Renilla Luciferase Signal; HEK cells with a luciferase reporter of 2A StopGo recoding; Potency, µM (titrated, usually from 57.5 µM), for the others: at the highest dose signal change, negative = less light; actives 0.32% (n = 120,000); active means well fitted falling curve with a large enough effect; inconclusive means small, poorly fitted or top-dose-only effect; inactive means no such curve, though single readings can be large or run the other way; note: nearly all actives have a fitted effect of over 55% in size; overnight with compound
# StopGo FLuc: Primary qHTS Assay for Foot and Mouth Disease Virus Antivirals against NCGC Sytravon and CBC Compound Libraries: Firefly Luciferase Signal. actives 0.23% (n = 120,000). Potency, µM (titrated, usually from 57.5 µM), without a hit: at the highest dose signal change, negative = less light. HEK cells with a luciferase reporter of 2A StopGo recoding. AID 1745856, 2022; active = well fitted falling curve with a large enough effect; inconclusive = small, poorly fitted or top-dose-only effect; inactive = no such curve, though single readings can be large or run the other way; note: nearly all actives have a fitted effect of over 60% in size; overnight with compound
# Starred values were filed as active, the others as inactive; u = inconclusive; & = joins results of further samples; [ ] = remark or other dose. % is set by controls: 0 for no effect and ±100 for the full control effect; potency is the fitted concentration of half-maximal effect. Only part of the results is shown; count on the stated rates, not on these rows.
# The first five records as a preview:
SMILES,2A Renilla,StopGo FLuc
Cc1ccc(-c2nnc(SCc3cc(-c4ccco4)on3)o2)cc1,-10%,4%
CC(=O)N1CCc2cc(S(=O)(=O)CCC(=O)NCc3ccc(Cl)cc3)ccc21,u,u
Clc1ccc(N2CCN(c3ncnc4c3cnn4-c3ccccc3)CC2)cc1Cl,-15%,-7%
CCOC(=O)c1c(C)n(Cc2ccccc2)c2ccc(OC(C)=O)cc12,u,-26%
COc1ccc(N2C(=O)CSC2c2ccc(F)cc2)cc1 (stereo not given),-6%,12%

# The listing, from the start:
SMILES,2A Renilla,StopGo FLuc
Cc1ccc(-c2nnc(SCc3cc(-c4ccco4)on3)o2)cc1,-10%,4%
CC(=O)N1CCc2cc(S(=O)(=O)CCC(=O)NCc3ccc(Cl)cc3)ccc21,u,u
Clc1ccc(N2CCN(c3ncnc4c3cnn4-c3ccccc3)CC2)cc1Cl,-15%,-7%
CCOC(=O)c1c(C)n(Cc2ccccc2)c2ccc(OC(C)=O)cc12,u,-26%
COc1ccc(N2C(=O)CSC2c2ccc(F)cc2)cc1 (stereo not given),-6%,12%
Cc1ccc(-c2csc(-c3ccc(O)cc3)n2)c(C)c1,4%,128%[activator]
COc1ccc(S(=O)(=O)N2CCCCC2)cc1NC(=O)Cc1nn(C)c(=O)c2ccccc12,16%,-2%
CCOc1ccccc1NC(=O)CSc1nc2c(c(=O)[nH]1)CCC2,14%,0%
CC(C)C(CNC(=O)c1cccc(CS(C)=O)c1)c1ccccc1 (stereo not given),13%,5%
COc1ccc(S(=O)(=O)NCCc2sc(-c3cccc(C)c3)nc2C)cc1,262%[activator],43%[activator]
CCn1nc(C(=O)Nc2ccc(C)c(S(=O)(=O)N3CCOCC3)c2)c2ccccc2c1=O,120%[activator],0%
O=C(Nc1ccc(C(=O)OCc2cc(=O)n3nc(C4CC4)sc3n2)cc1)c1cccc(F)c1,11%,-9%
N#CC1=C(N)OC2=C(C(=O)CC(c3cccc(Cl)c3)C2)C1c1ccc(Cl)cc1 (stereo not given),2%,-2%
N#Cc1cc2c(nc1SCCS(=O)(=O)c1nc3ccccc3s1)CCCC2,-14%,5%
COc1ccc(-n2c(C)nc3c(cnn3-c3ccc(C)c(C)c3)c2=O)cc1Cl,4%,-5%
O=S(=O)(NCCc1nnc2ccc(SCc3ccc(Cl)cc3Cl)nn12)c1ccccc1,-6%,-13%
CCN(CC)C(=O)CNC(=O)c1[nH]c2ccccc2c1Cl,-4%,168%[activator]
Cc1cc(C)n(-c2nc3ccccc3nc2NCc2ccccc2)n1,12%,62%[activator]
COc1ccccc1-c1noc(CCCC(=O)Nc2ccc(S(=O)(=O)N3CCOCC3)cc2)n1,-12%,-2%
CCc1ccc(CNC(=O)C2CCN(c3nnc(C)c4c(C)n(-c5ccc(C)cc5)nc34)CC2)cc1,-1%,-14%
COC(=O)c1cn(CC(=O)NC(C2CC2)C2CC2)c2ccccc12,-4%,0%
CCCCC/C=C\C/C=C\C/C=C\C/C=C\CCCC(=O)NCC(=O)O,4%,6%
Cc1ccc2c(c1)CC(C)N2S(=O)(=O)c1nnc(NC(=O)c2ccccc2F)s1 (stereo not given),u,-8%
COC(=O)c1ccc(-n2c(CCC(=O)O)ccc2-c2ccc(C)cc2)cc1,6%,3%
COc1ccc(C(=O)c2c(N)c(-c3nc(-c4ccc(OC)cc4)cs3)c3ccccn23)cc1,-6%,22%
COc1ccccc1Nc1c(-c2ccc(O)cc2)nc2ncccn12,0%,0%
Cc1ccc(C(=O)Nc2ccc(-c3cn4cccnc4n3)cc2)cc1C,17%,0%
COC(=O)C1=C(C)NC(=O)CC1c1cccc(F)c1 (stereo not given),-4%,-4%
CC(NC(=O)c1cc2sccc2n1Cc1ccc(F)cc1)c1ccccc1 (stereo not given),-10%,0%
COc1cc2c(C(=O)Nc3ccc(C)cc3Br)cn(C)c(=O)c2cc1OC,-12%,15%
CS(=O)(=O)N(Cc1csc(-c2cccs2)n1)C1CCN(C(=O)c2ccccc2F)CC1,29%,-10%
CCOc1ccccc1NC(=O)N(Cc1ccc2c(c1)OCO2)C1CCN(Cc2ccccc2)CC1,-11%,-21%
COc1ccc2oc(-c3ccc(C)c(NC(=O)c4ccc5c(c4)OCCO5)c3)nc2c1,-1%,128%[activator]
O=C(Oc1ccc2ccccc2c1)C1C2CCCC1C2c1ccccc1 (stereo not given),24%,0%
CCCCC(CC)CNC(=O)CCC(=O)NCC(CC)CCCC (stereo not given),-7%,-13%
O=C(Nc1ccccc1)C1CCN(c2nc3ccccc3o2)CC1,u,u
Cc1cccc(-c2nc3c(Br)c(N)c(Br)cc3o2)c1,3%,155%[activator]
CCOc1ccc(CNC(=O)CN2C(=O)CSc3c2c(C)nn3-c2ccccc2)cc1,-5%,-12%
CCOc1ccc(S(=O)(=O)N2CCCCC2)cc1NC(=O)Cc1n[nH]c(=O)c2ccccc12,-7%,-12%
Cc1ccc(C)c(NC(=O)C2=Cc3sc4c(c3CS2)CCCC4)c1,-16%,14%
Cc1ccc(C(=O)Nc2nnc(S(=O)(=O)N3CCCc4ccccc43)s2)cc1,-18%,52%[activator]
O=C(CCc1ccc2ccccc2n1)NCCc1ccc(C(F)(F)F)cc1,2%,1%
CCOc1ccc(NC(=O)c2ccc3ccccc3n2)cc1,6%,193%[activator]
Cc1nc2nc(SCC(=O)N(Cc3ccccc3)C(C)C)nn2c(C)c1Cc1ccccc1Cl,1%,-17%
CCOC(=O)/C=C/c1cc(C(=O)OCC)c(/C=C/C(=O)OCC)cc1C(=O)OCC,-4%,13%
COc1ccc(-c2nc(CNS(=O)(=O)c3ccccc3)cs2)cc1,u,u
CCc1nnc(SC(CC)C(=O)NCCOC)c2cc3occc3n12 (stereo not given),-1%,30%[activator]
CCc1ccc2occ(CC(=O)N(Cc3ccc(F)cc3)C3CCS(=O)(=O)C3)c2c1 (stereo not given),-5%,-7%
Cc1cccc(-c2nn3c(=O)cc(CN4CCN(C(=O)COc5ccc(Cl)cc5)CC4)nc3s2)c1,-9%,13%
CC1=C(C)C(=O)C(C(CCCCCC(=O)O)c2ccccc2)=C(C)C1=O (stereo not given),-8%,16%[11.5 µM]
CC(C)(C)C1CCc2c(sc(NC(=O)Cn3nnc(-c4ccccc4Cl)n3)c2C#N)C1 (stereo not given),-7%,-10%
CN(Cc1ccccc1)Cc1nc2c(c(=O)n(C)c(=O)n2C)n1CC(N)=O,3%,7%
CNC(=O)c1c(NC(=O)c2ccc(S(=O)(=O)N3CCC(C)CC3)cc2)sc2c1CCC2,-4%,-17%
COc1ccc(CCNC(=O)CS(=O)Cc2nc(-c3ccccc3Cl)oc2C)cc1OC (stereo not given),3%,3%
Cc1ccc(C)c(-c2ccc(=O)n(C(C)C(=O)Nc3ccccc3C(F)(F)F)n2)c1 (stereo not given),-3%,-11%
COc1cccc(CNC(=O)C2CCCN(c3nnc(-n4c(C)ccc4C)s3)C2)c1OC (stereo not given),u,u
COc1ccccc1C(=O)Nc1c(C(=O)N(CCN(C)C)Cc2ccco2)oc2ccccc12,7%,-3%
O=C(CCc1c[nH]c2ccccc12)Nc1cccc(OC(F)F)c1,-9%,52%[activator]
Cc1ccc(S(=O)(=O)n2cnc3ccccc32)cc1,-9%,-5%
O=S(=O)(NCCc1cn2ccccc2n1)c1cccc(Cl)c1,17%,-2%

# Shown as labelled records: part of the list above
structure: CN(Cc1ccccc1)Cc1nc2c(c(=O)n(C)c(=O)n2C)n1CC(N)=O
  2A Renilla = 3%
  StopGo FLuc = 7%

structure: CNC(=O)c1c(NC(=O)c2ccc(S(=O)(=O)N3CCC(C)CC3)cc2)sc2c1CCC2
  2A Renilla = -4%
  StopGo FLuc = -17%

# New compounds follow:
SMILES,2A Renilla,StopGo FLuc
CS(=O)(=O)NCC1CCCN(C(=O)c2cnc3ccccc3n2)C1 (stereo not given),-5%,80%[activator]
Cc1nn(-c2ncccn2)c2c1C(c1ccc(OCC(C)C)cc1)CC(=O)N2 (stereo not given),1%,1%
CCNC(=O)C1CCN(C(=O)Cn2c(=O)c3c(ncn3CCOC)n(Cc3ccccc3)c2=O)CC1,-4%,3%
COc1ccc(N)cc1OCCO,1%,-1%
Cc1cccc(-n2ncc3c(N4CCCC(C)C4)ncnc32)c1 (stereo not given),10%,-10%
Cn1c(=O)c2c(-c3ccc(Br)cc3)n(Cc3ccc(F)cc3)cc2n(C)c1=O,40%&12%[activator],0%&7%
CC1CCCN(C(=O)c2ccccc2NS(=O)(=O)c2cccc(C(F)(F)F)c2)C1 (stereo not given),94%[activator],-9%
Cc1ccsc1CN(C)C(=O)Cc1n[nH]c(=O)c2ccccc12,-2%,17%
O=C(Cn1c(=O)c(S(=O)(=O)c2ccccc2)cc2ccccc21)N1CCCC1,18%,4%
COc1cccc(C(=O)NC2(C(F)(F)F)C(=O)Nc3c2c(=O)[nH]c(=O)n3-c2ccc(C)cc2)c1 (stereo not given),0%,268%[activator]
CCOC(=O)c1c(NC(C)=O)c2c3c(sc2n1Cc1cc(C)ccc1C)CCCC3,-8%,0%
O=C(O)COc1nn(Cc2ccccc2)c2ccccc12,-7%,-15%[11.5 µM]
CCCOc1cccc(C(=O)Nc2cc(-c3nc4ccccc4[nH]3)ccc2C)c1,u,-29%
N#Cc1cc2ccccc2nc1N1CCCCC1,13%,25%
N#Cc1ccccc1CSc1nnnn1-c1ccc(Cl)cc1,83%[activator],32%[activator]
COc1ccccc1-c1noc(-c2ccc(N3CCN(C)CC3)c([N+](=O)[O-])c2)n1,3%,-45%
CC(=O)C(Cc1ccc(Br)cc1)C(=O)c1ccccc1 (stereo not given),38%[activator],11%
COCCn1c(SCC(=O)c2ccc(Cl)cc2)nnc1-c1ccncc1,8%,10%
Cc1c(Cc2ccccc2)c(=O)oc2cc(OCCC(C)C)ccc12,21%[1.06 µM],u
COc1ccc(C(=O)c2sc(Nc3cccc(C)c3C)nc2N)cc1OC,-15%,-24%
Cc1ccc(CNc2ncccc2-c2nc(-c3ccc(Cl)cc3)no2)cc1,7%,118%[activator]
N#Cc1cccc(NC(=O)c2cc(Cl)cc(Cl)c2)c1,22%,37%[activator]
COc1ccc(C2CC(=O)N(c3ccccc3)C3=C2C(=O)OC3)cc1 (stereo not given),-3%,3%
Cn1c(=O)oc2cc(S(=O)(=O)NC(Cc3ccccc3)C(=O)NCc3ccc(F)cc3)ccc21 (stereo not given),4%,-14%
CN(C(=O)CN1CC=C(c2ccccc2)CC1)C1CCS(=O)(=O)C1 (stereo not given),-10%,-3%
O=C(CCCn1c(=O)c2cccn2c2ccc(F)cc21)NCc1ccc(Cl)cc1,-11%,-17%
COc1cccc(CNCC(c2ccccc2)c2c[nH]c3ccccc23)c1 (stereo not given),30%,-2%
Cc1ccc(-c2c(NC(=O)c3cccs3)n(C)c3ccccc3c2=O)cc1,-3%,-1%
COc1ccc(CNC(=O)COc2ccc3c(=O)c(Oc4ccc(F)cc4)coc3c2)cc1,u,u
CCN(CC)S(=O)(=O)c1cc(C)c(C)c([N+](=O)[O-])c1,-10%[1.06 µM],0%
Cc1ccc(Cl)cc1NC(=O)Cn1c(=O)cc(C)c2c(C)nn(C)c21,-1%,-5%
CC(C)(C)c1nc(CSc2n[nH]c(-c3ccccc3F)n2)no1,21%,108%[activator]
Cc1c(Cl)cccc1NC(=O)COc1ncnc2ccccc12,0%,4%
Cc1csc2nc(COc3ccccc3NC(=O)c3ccccc3Cl)cc(=O)n12,4%,4%
Cc1cc(Sc2nnc(-c3ccc(F)cc3)n2C)nc2c(C)cccc12,7%[1.06 µM],10%
CC(c1nnc(SCC(=O)Nc2ccc(C#N)cc2)n1C)N1C(=O)COc2ccccc21 (stereo not given),10%,12%
CC(=O)Nc1ccc(NC(=O)CCc2ncc(-c3ccc(F)cc3F)o2)cc1,-9%,8%
CCOc1ccc(NC(=O)CN(Cc2ccccc2)S(=O)(=O)c2ccc(Cl)cc2)cc1,18%,u
CCN1CCN(c2cc(C)c3cc(NC(=O)c4cccc(C(F)(F)F)c4)ccc3n2)CC1,4%,-1%
Cc1cccc(NC(=O)c2ccc3ccccc3n2)c1,22%,91%[activator]
O=C(O)CNS(=O)(=O)c1cccc(C(=O)/C=C/c2ccccc2Cl)c1,-3%,0%
O=C(Nc1ccc(F)c(Cl)c1)c1nccnc1-c1nc2ccccc2s1,1%,-1%
Cc1nc(N2CCOCC2)c2c(C(=O)N3CCN(c4cccc(C)c4C)CC3)c(C)oc2n1,-8%&-7%,-7%&-21%
Cc1cccc(C)c1-n1ncc(C(=O)O)c1C1CCN(C(=O)OC(C)(C)C)CC1,2%,-18%
Cn1nc(C(=O)Nc2nc3c(s2)CN(Cc2ccccc2)CC3)c2ccccc2c1=O,3%,5%
O=C(/C=C/c1ccc(Cl)c(Cl)c1)NC1CCC(O)CC1 (stereo not given),14%,60%[activator]
COCc1ccc(CNC(=O)/C=C/c2sccc2C)cc1,24%,79%[activator]
CC(C)C1C/C(=N/NC(N)=S)C=C2CCCCC21 (stereo not given),2%,8%
CCC(C)OC(=O)C[N+](C)(C)CCOC1CC2CCC1(C)C2(C)C (stereo not given),u,u
O=C(NCCc1ccccc1)c1ccc2c(c1)N(Cc1ccc(F)cc1)C(=O)CS2,-14%,2%
COC(=O)c1ccccc1NC(=O)c1cc2nc(-c3ccccc3)cc(-c3ccccc3)n2n1,-11%,-13%
COc1cccc(C(=O)NC(=NCCc2c[nH]c3ccc(OC)cc23)Nc2nc(C)cc(C)n2)c1,42%[activator],65%[activator]
